Assay outcomes as filed in PubChem BioAssay.
MT1-MMP act inh = blockers of MT1-MMP proenzyme processing, primary screen, HT1080 RFP-PRO-GFP cells, GFP/RFP fluorescence; Matrix metalloproteinase-14 (Homo sapiens), P50281; GFP/RFP ratio fluorescence, overnight; percent of plate control window, DMSO zero; GFP/RFP ratio change, % at 20 µM; hit rate 0.061% among 360,000; AID 651647, 2012;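 active = GFP/RFP ratio change of at least 30% with cell ATP level not reduced by more than half and red fluorescence within 50% of control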; also: strong numbers were not always called active
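system = RFP-PRO-GFP reporter HT1080 cells | dosing = 20 µM single dose, 1% DMSO | timing = overnight cell settling, then overnight compound exposure, 37 °C, 5% CO2 | read-out basis = GFP/RFP fluorescence ratio | controls = DMSO and RFP-L50D-GFP cell wells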
UUG fidelity = modulators of yeast start codon fidelity, primary screen, whole organism, S. cerevisiae, single point, plate reader. activity score, % at 18.7 µM. S. cerevisiae UUG-firefly luciferase reporter, luminescence/redox ratio. hit rate 0.13% among 350,000;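 active = replicate mean at a twofold rise or more, about +100% in these data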;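 also: firefly luciferase made from a UUG start codon reports start codon fidelity; reporter light over untreated wells divided by growth signal over untreated wells; some hits fall short of that in this replicate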
MT1-MMP act inh RFP = further read-out of MT1-MMP act inh, marked with its call; RFP signal change, %; measured here: RFP expression control read;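 0 = vehicle wells; hits needed this value within 50% of zero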
* hit, by the source's call; & = joins results of further samples. Only part of the results is shown; count on the stated rates, not on these rows.

nr	MT1-MMP act inh	MT1-MMP act inh RFP	Compound	UUG fidelity
1	-4	-9	COc1ccc(CCNC(=O)c2cc3c(=O)n4ccccc4nc3n(CC3CCCO3)c2=N)cc1 (configuration not stated)	6
2	-4	-3	Cc1cccc(C2=NN(c3ccc(Br)cc3)[C@@H](C(=O)N3CCOC3=O)[C@@H]2c2ccc(Cl)cc2)c1	7
3	2	1	C[C@H]1CN([C@@H](C)CO)C(=O)CCCn2nncc2CO[C@@H]1CN(C)C(=O)c1ccccc1	-20&-4
4	1	6	CN1CCN(C2CN(Cc3cn(Cc4ccccc4F)nn3)S(=O)(=O)C2)CC1 (configuration not stated)	-7
5	-1	4	CCN1C(=O)[C@H]2[C@@H](c3ccc(OC)cc3)N[C@]3(CCCN(Cc4ccc(F)cc4)C3=O)[C@H]2C1=O	-13
6	-2	-4	O=C(NCCC1=CCCCC1)C1CCN(S(=O)(=O)c2cccc(C(F)(F)F)c2)CC1	2
7	-5	-10	COc1ccc(CN(CCC(C)C)S(=O)(=O)c2ccccc2Br)cc1	-15
8	-6	4	C=CCn1c(SC)nccc1=O	-3
9	2	3	COc1cc(Cl)c(CNC[C@H]2O[C@@H](n3cnc4c(=O)[nH]c(N)nc43)[C@H](O)[C@@H]2O)c(Cl)c1O	9
10	-1	-1	CSc1ccc(Cl)c(C(=O)OCC(=O)N2CCN(C(=O)c3ccco3)CC2)c1	-13
11	1	1	O=C(CSC(=S)N1CCCC1)N(Cc1nnc(-c2ccccc2Cl)o1)C1CC1	-3
12	2	10	Cc1ccccc1NC(=O)Cc1nc(COC(=O)CSc2ccc(F)cc2)cs1	-18
13	3	2	CC1Cc2ccccc2N1C(=O)COC(=O)/C=C/c1ccc(F)cc1 (configuration not stated)	-25
14	6	-4	CN1C(=O)N(CC(=O)N2CCN(S(=O)(=O)c3ccc(Cl)s3)CC2)C(=O)C12CCCCC2	-1
15	-4	2	Cc1ccc(C(=O)Nc2cc(C(F)(F)F)ccc2-n2cncn2)o1	-10
16	-3	-6	NC(=S)NN=C1CCCCCCCCCC1	-25
17	5	4	O=C(COc1ccccc1)NCC(=O)N1CCCC(C(F)(F)F)C1 (configuration not stated)	-13
18	-10	-3	COc1ccc(CN(C)[C@H]2C[C@H]3c4[nH]c5ccccc5c4CCN3C[C@H]2[C@H](C)O)cc1	-22
19	5	-3	CSc1ncnc2c1ncn2CCCN1CCN(Cc2cccc3ccccc23)CC1	-19
20	2	4	CCc1ccc(OCC(=O)OC(C)C(=O)Nc2ccc(Cl)cn2)cc1 (configuration not stated)	4
21	2	-4	Cc1ccc(NC(=O)c2ccccc2OCC(=O)Nc2ccccc2F)cc1S(=O)(=O)N(C)C	-24
22	-5	-8	CCCCN(C(=O)CSc1nnc(-c2ccc(Cl)cc2)o1)c1c(N)n(CC(C)C)c(=O)[nH]c1=O	-2
23	1	2	O=C(CC[C@H]1O[C@@H](n2ccc(=O)[nH]c2=O)[C@H](O)[C@@H]1O)NCC1CCCO1 (some centres not stated)	-12
24	-5	-6	Cc1ccc([C@H]2N[C@]3(CCCN(Cc4ccc(Br)cc4)C3=O)[C@H]3C(=O)N(Cc4ccccc4)C(=O)[C@@H]23)cc1	-1
25	1	0	CCC(=O)c1ccc(OCC(=O)OCC(=O)Nc2cccc(S(=O)(=O)N3CCCC3)c2)cc1	-5

Other results:
nr	MT1-MMP act inh	MT1-MMP act inh RFP	Compound	UUG fidelity
26	-2	-1	Cc1cc(Cl)ccc1OCC(=O)OCC(=O)c1c(N)n(C)c(=O)n(C)c1=O	-15
27	-1	3	CC(C)N1C(=O)C(=O)N(CC(=O)N(C)c2ccccc2)C1=O	-9
28	-1	4	O=C(CCC(=O)c1cccs1)NNC(=O)c1ccccc1Cl	-6
29	1	-4	COc1ccc(OCCOc2ccc(S(=O)(=O)N3CCCC3)cc2[N+](=O)[O-])cc1	16
30	-5	1	Cc1ccccc1C(N)=O	-33
31	-3	2	CN(CC(=O)Nc1cccc(F)c1)CC(=O)N1CCCCC1	-19
32	4	4	CCCC(=O)Nc1c(-c2ccccc2)[nH][nH]c1=O	-15
33	3	-3	O=C(Nc1ccccc1)OCCOc1ccc(Cl)cc1Cl	-17
34	2	-2	CCc1ccc(C(=O)CN2C(=O)NC3(CCc4ccccc43)C2=O)cc1 (configuration not stated)	0
35	3	0	CCN(CC(=O)Nc1ccccc1C(F)(F)F)C(=O)c1ccc(-n2nc(C)c(CCC(=O)OC)c2C)cc1	9
36	4	-4	Cc1cc(C)cc(-n2c3ccc(NC(=S)NC4CCCCC4)cc3c(=O)n2C)c1	-13
37	2	1	CC1CCC(NC(=O)CN2C(=O)C3CC=CCC3C2=O)CC1 (configuration not stated)	-14
38	-8	-25	CCOc1ccc(NC(=O)c2ccc(OCC3CCCO3)cc2)cc1S(=O)(=O)N(CC)CC (configuration not stated)	13
39	0	2	COCCCN1C(=O)C(CC(=O)NC2CCCC2)CC(C(=O)N(C(C)C)C(C)C)=C1C (configuration not stated)	1
40	2	-3	Cc1ccc(C(=O)OC(C)C(=O)Nc2ccc3c(c2)OCO3)c(O)c1 (configuration not stated)	13
41	-3	4	CC(NC(=O)c1ccc(NC(=O)CC2SC(N3CCCC3)=NC2=O)cc1)c1ccccc1 (configuration not stated)	-3
42	4	-3	CC1(C)Nc2cccc3cccc(c23)N1	-11
43	-5	-1	O=C(COC(=O)c1cc(S(=O)(=O)N2CCOCC2)c(Cl)cc1Cl)NC1CC1	-12
44	-1	-4	CCN(CC)S(=O)(=O)c1ccc(C(C)NC(=O)C2CCCN2C(=O)c2cccs2)cc1 (configuration not stated)	1
45	1	-1	CCOC1=C2[C@@H](CN(S(=O)(=O)c3ccc(C)cc3)[C@H]2c2ccc(CC)cc2)[C@H]2C(=O)N(C)C(=O)[C@H]2C1	-2
46	2	3	CCCCNC(=O)C1(C)CCN1C(=O)c1ccc2sccc2c1 (configuration not stated)	-7
47	-1	0	COc1ccccc1CNC(=O)Cn1nc(C(F)(F)F)cc1C	-14
48	3	8	CNc1nnc(SCC(=O)c2cc(C)n(C3CC3)c2C)s1	-11
49	4	2	O=C(Cc1ccccc1)N(c1ccccc1)c1ccccc1	-1
50	-2	1	Cc1cc(C(=O)COC(=O)Cc2ccc(Br)cc2)c(C)n1C	-8

Later entries
nr	MT1-MMP act inh	MT1-MMP act inh RFP	Compound	UUG fidelity
51	1	-2	CCN(C(=O)COC(=O)c1c(NC(C)=O)sc(C)c1C)c1c(N)n(Cc2ccccc2)c(=O)[nH]c1=O	1
52	3	-1	CCOC1=C2CN(S(=O)(=O)c3ccc(C)cc3)[C@H](c3cccs3)C[C@H]2n2c(=O)n(-c3ccccc3)c(=O)n2C1	-19
53	5	-6	Cc1ccc(Sc2ccc(NC(=O)CCN3C(=O)NC4(CCCC4)C3=O)cc2)c(C)c1	-6
54	-2	3	CC1(Cc2cccc(C(N)=O)c2)C(=O)Nc2c(Cl)cccc21 (configuration not stated)	-13
55	-27	-41	CC(=O)OC[C@]12CC[C@H]3[C@@](C)(CC[C@H]4C(C)(C)CCC[C@]34C)[C@@H]1CC(C1=CC(=O)OC1O)O2 (some centres not stated)	23
56	22	0	COc1cc(CCC(=O)Nc2ccc(S(=O)(=O)N3CCOCC3)cc2)cc(OC)c1OC	7
57	8	-28	CC1(C(=O)Nc2ccc(Cl)c(Cl)c2)CCN1C(=O)Cc1ccc(-c2ccccc2)cc1 (configuration not stated)	-12
58	-3	-13	COc1ccc(Cl)cc1-c1cc(C(=O)NCc2cc(C(F)(F)F)cc(C(F)(F)F)c2)[nH]n1	-12
59	-4	-4	COc1ccc(NC(=O)c2ccc(NC(=O)C3COc4ccccc4O3)cc2)c(OC)c1 (configuration not stated)	9
60	14	-32	Cc1onc(-c2c(F)cccc2Cl)c1C(=O)Nc1cc(S(=O)(=O)N2CCCCC2)ccc1O	-2
61	0	4	CN(C)S(=O)(=O)c1cccc(C(=O)OCC(=O)Nc2ccc3c(c2)OCCO3)c1	-13
62	0	-1	COc1ccccc1NC(=O)COC(=O)c1cc(C)nc2ccccc12	-12
63	-3	0	COc1ccc(CNC(=O)COC(=O)CN2C(=O)NC3(CCCC3)C2=O)cc1	-6
64	4	3	CCOc1ccc(NC(=O)C2CC(=O)N(Cc3ccco3)C2)cc1 (configuration not stated)	-13
65	-4	-2	Cc1cc2nc(C(C)(C)C)c(Cc3ccccc3)n2c(C)c1Br	-12
66	1	1	COc1ccc([C@@H]2C[C@H]3[C@@H](CN2S(=O)(=O)c2ccccc2)C(=O)C[C@@H](c2cccc(Cl)c2)N3S(=O)(=O)c2ccc(C)cc2)cc1	-8
67	0	2	CC(C(=O)Nc1cc(C(F)(F)F)ccc1N1CCOCC1)N1C(=O)C2CCCCC2C1=O (configuration not stated)	-27
68	-1	-6	CCN(C(=O)COC(=O)CCOc1ccc(C(C)(C)C)cc1)c1c(N)n(Cc2ccccc2)c(=O)[nH]c1=O	-21
69	-3	-11	O=C(NCc1ccc(F)cc1)N1[C@H]2CC[C@@H]1C=C(c1ccc(F)cc1OCc1ccccc1)C2	-11
70	-1	2	CN(C(=O)CSc1nc(N)cc(=O)[nH]1)C1CCCCC1	-15
71	-1	2	Cc1ccc(NC(=O)COC(=O)c2ccc(OC(F)F)cc2)cc1S(=O)(=O)N1CCCCC1	-15
72	3	5	Cc1ccc(CNC(=O)Cn2cnc(C(=O)Nc3ccc(C)c(C)c3)n2)o1	-16
73	2	3	CCOC1=C2[C@@H](CN(S(=O)(=O)c3ccc(C)cc3)[C@H]2c2ccccc2F)[C@H]2C(=O)N(CC)C(=O)[C@H]2C1	0
74	-3	-2	C=CC[C@H](CC(=O)N[C@H](CO)Cc1ccccc1)C(=O)N[C@H](COC(=O)[C@@H](CC=C)Cc1ccc(F)cc1)Cc1c[nH]c2ccccc12	-22
75	0	0	CC1CCC2(CC1)NC(=O)N(CC(=O)N1CCN(C(=O)c3cccs3)CC1)C2=O (configuration not stated)	0

New compounds follow:
nr	MT1-MMP act inh	MT1-MMP act inh RFP	Compound	UUG fidelity
76	0	-7	COc1ccc(-c2sc3ccc(OC)cc3c2-c2ccc(OCCN3CCOCC3)cc2)cc1	-29
77	-1	3	COc1cc(NC(=O)C2(C)CCCN2C(=O)C(C)C)cc(OC)c1OC (configuration not stated)	-17
78	0	7	O=C1CN(C(=O)COC(=O)c2cccs2)c2ccccc2N1	-19
79	2	-1	CCCCC[C@@H]1C=C(C(=O)O)[C@H](c2cccc(C)c2)N1S(=O)(=O)c1ccc(C)cc1	-11
80	-4	0	Cc1onc(-c2ccccc2)c1C(=O)N(CC(C)C)c1c(N)n(CC(C)C)c(=O)[nH]c1=O	-3
81	-4	1	O=C(COC(=O)C1CC1)Nc1ccc(Cl)cn1	-27
82	0	3	Cc1ccc(/C=C/C(=O)OCC(=O)NC(=O)NCc2ccccc2)cc1	-11
83	-2	0	O=C(COC(=O)c1nc(Cl)c(Cl)c(Cl)c1Cl)NCc1ccccc1	-4
84	-3	-2	Cc1cccc(N(Cc2ccccc2)C(=O)c2ccc(C)c(S(=O)(=O)N3CCOCC3)c2)c1	0
85	2	4	CC(C)CC1(C2CCCC2)NC(=O)NC1=O (configuration not stated)	-3
86	-3	1	Cc1ccc(NC(=O)C(C)OC(=O)c2nc(Cl)ccc2Cl)cc1S(=O)(=O)N1CCOCC1 (configuration not stated)	-4
87	-4	-2	O=C(NCCc1ccc(OC(F)F)cc1)C1CC(=O)N(c2ccc3c(c2)OCCO3)C1 (configuration not stated)	2
88	-3	1	Cc1cc(C(=O)COC(=O)c2nn(C)c(=O)c3ccccc23)c(C)n1C	-23
89	1	-2	O=C(COc1cccc(F)c1)NNC(=O)Cc1ccc(Br)cc1	-7
90	1	2	COc1cc(CC(=O)OCC(=O)NCc2ccc(C)cc2)cc(OC)c1OC	-12
91	-3	4	CCCN(C(=O)c1cccs1)c1c(N)n(Cc2ccccc2)c(=O)[nH]c1=O	0
92	4	1	CCOc1ccc(NC(=O)CN(C)C(=O)C2CC(=O)N(c3cccc(SC)c3)C2)cc1OCC (configuration not stated)	14
93	6	1	COc1cccc(NC(=O)CN(C)C(=O)c2ccc(NC3CC3)c([N+](=O)[O-])c2)c1	-22
94	1	-1	CCOC(=O)C1(C)CCCN(C(=O)c2ccc(-c3ccccc3)cc2)C1 (configuration not stated)	4
95	6	-4	COc1cccc(C(NC(C)=O)c2nc(-c3cccc(C(C)C)c3)cs2)c1 (configuration not stated)	-2
96	8	10	CC1=C(C(=O)N(C(C)C)C(C)C)CC(CC(=O)NCc2cccs2)C(=O)N1CCCN1CCCC1=O (configuration not stated)	-5
97	1	2	CCOC(=O)C1=CCC2C(=O)N(Cc3ccccc3)C(=O)C12 (configuration not stated)	-6
